# Ecoli growth – E. coli growth inhibition, primary screen, OD600. Escherichia coli growth, 23 h; stronger effect = lower value. OD600 absorbance (concentration not given with the values). 330,000 compounds, 0.21% hits. AID 1053175, 2014;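 active = OD600 absorbance below the run mean of sample wells minus 3.6 SD, in any replicate, cut at about 0.56 in these data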;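 also: stock transfer was 300 nL into about 60 µL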
# UCH37 inh – inhibitors of human UCH37 deubiquitinase, primary screen, biochemical, Ub-AMC cleavage, fluorescence; Ubiquitin carboxyl-terminal hydrolase isozyme L5 (Homo sapiens), Q9Y5K5; purified proteasome/UCH37; inhibition, % (concentration not given with the values); 330,000 compounds, 0.33% hits; AID 588478, 2011;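 active = mean of two replicates above 20%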;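 also: 0% = compound-free wells with enzyme and 100% = wells lacking proteasome; stock transfer was 100 nL into about 20 µL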
# Target sequence (Q9Y5K5 whole entry, looked up): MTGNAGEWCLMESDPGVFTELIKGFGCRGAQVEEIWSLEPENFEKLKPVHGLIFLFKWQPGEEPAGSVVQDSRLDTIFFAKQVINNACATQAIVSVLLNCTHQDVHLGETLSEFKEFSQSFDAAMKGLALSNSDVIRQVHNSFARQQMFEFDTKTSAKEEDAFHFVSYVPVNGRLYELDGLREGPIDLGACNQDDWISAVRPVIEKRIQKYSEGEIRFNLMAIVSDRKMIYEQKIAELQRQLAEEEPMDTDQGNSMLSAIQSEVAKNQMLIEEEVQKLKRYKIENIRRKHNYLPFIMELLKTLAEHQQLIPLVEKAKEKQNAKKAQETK
#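 System: Proteasome-associated human UCH37 deubiquitinase; Input: 0.15 nM proteasome in added enzyme buffer; Also added: Ub-AMC substrate from 1 µM stock; Incubation: 30 min compound-proteasome preincubation then 25 min substrate reaction, room temperature; Detection: fluorescence, ex 355 nm, em 460 nm; Read-out: % inhibition of Ub-AMC cleavage fluorescence; Benchmarks: no-proteasome and no-compound wells.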
# Vif TR-FRET – inhibitors of Vif binding to APOBEC3G peptide, primary screen, biochemical, TR-FRET, GST-Vif 1-94, biotin-A3G peptide, dose response retest (AID 1117319); TR-FRET GST-Vif / biotin-A3G peptide binding; higher % means a stronger effect; test concentration not given here; strong numbers were not always called active; one-dose inhibition, %; IC50 in µM for titrated hits; Virion infectivity factor (Human immunodeficiency virus type 1 group M subtype B (isolate …; 260,000 compounds, 0.57% hits;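 active = above the screen mean plus three standard deviations and confirmed in dose response; inconclusive = results disagree or hit not tested in dose response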;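 also: Vif residues 1-94 fused to GST binding biotinylated APOBEC3G peptide 110-148; 0% = full assay without inhibitor and 100% = GST in place of GST-Vif; retest series ran down from 100 µM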
# HNF4A DNA FP – change in binding of human HNF4A to DNA, primary screen, biochemical, fluorescence polarization, FITC-DNA. Hepatocyte nuclear factor 4-alpha (Homo sapiens), P41235. 1 h. activity change, % at 10 µM. 360,000 compounds, 0.3% hits. AID 1224865, 2016; in the data active = activity change above about 30%, passing the limit was not always enough;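 also: controls were the assay level and a saturating level of protein; the project sought stronger binding though the title names inhibitors; some compounds called inactive have numbers as strong as hits; positive values seem to mean higher polarization but the record does not say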
# FGF22 binding – binders of human FGF22 protein, primary screen, FGF22 synaptogenesis inhibitor project, biophysical, thermal shift, single point | recombinant FGF22 thermal shift, SYPRO orange fluorescence; percent of sucrose octasulfate shift, DMSO zero | calls only at 9.99 µM | 340,000 compounds, 1.5% hits | AID 651658, 2012;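 active = melting point raised past a set limit in the mean and every replicate; inconclusive = no clear call; three in four hits are not shown here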
# Target sequence (Q9HCT0 whole entry, looked up): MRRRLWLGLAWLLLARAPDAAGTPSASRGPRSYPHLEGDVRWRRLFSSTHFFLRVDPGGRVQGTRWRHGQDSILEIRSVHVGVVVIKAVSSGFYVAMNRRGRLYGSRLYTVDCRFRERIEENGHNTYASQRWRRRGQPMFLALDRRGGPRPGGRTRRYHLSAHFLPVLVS
# RanGTP-Imp inh – inhibitors of RanGTP-importin-beta interaction, primary screen, biochemical, FRET, CFP-Ran, YFP-importin-beta, homogeneous; cell-free CFP-Ran/YFP-importin-beta FRET ratio; inhibition, % (concentration not given with the values); 300,000 compounds, 1.1% hits; AID 2216, 2009;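 active = most replicates above 15%; inconclusive = exactly half above 15%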;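 also: 0% = DMSO wells and 100% = Ran loaded with GDP instead of GTP; wells of about 40 µL received 100 nL stock; the first replicate is given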
# AF4-AF9 inh – inhibitors of AF4 peptide binding to AF9, primary screen, biochemical, AlphaScreen, biotin-AF4 peptide, FLAG-AF9, single point | AID 651704, 2012 | 350,000 compounds, 0.47% hits | Protein AF-9 (Homo sapiens), P42568 | inhibition, % at 10 µM;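 active = every replicate reaching a set inhibition limit, whatever the replicate mean, cut at about 25% in these data; inconclusive = mean inhibition reaches that limit but some replicates miss it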;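 also: 0% = plate neutral control median and 100% = total signal loss; the record names both 10 and 1 µM as test concentration; the first replicate is given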
# Target sequence (P42568 whole entry, looked up): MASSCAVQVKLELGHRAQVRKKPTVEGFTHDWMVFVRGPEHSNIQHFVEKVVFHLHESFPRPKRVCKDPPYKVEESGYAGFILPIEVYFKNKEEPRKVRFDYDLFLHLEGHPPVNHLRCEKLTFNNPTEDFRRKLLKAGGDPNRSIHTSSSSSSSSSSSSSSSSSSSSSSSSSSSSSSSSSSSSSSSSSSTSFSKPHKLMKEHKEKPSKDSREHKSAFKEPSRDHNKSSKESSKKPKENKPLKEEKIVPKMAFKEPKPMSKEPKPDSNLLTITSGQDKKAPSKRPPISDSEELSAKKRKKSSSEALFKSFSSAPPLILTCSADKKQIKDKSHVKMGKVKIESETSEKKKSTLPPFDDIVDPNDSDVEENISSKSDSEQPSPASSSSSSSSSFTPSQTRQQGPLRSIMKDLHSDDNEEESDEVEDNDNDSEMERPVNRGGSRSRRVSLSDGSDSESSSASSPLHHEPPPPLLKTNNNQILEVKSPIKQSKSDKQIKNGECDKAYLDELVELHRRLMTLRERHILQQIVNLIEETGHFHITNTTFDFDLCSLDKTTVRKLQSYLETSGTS
# An asterisk follows results filed as active; i = inactive; ? = inconclusive; . = no result given; & = joins results of further samples. A portion of the library, so the mix of outcomes need not match the whole.
SMILES,Ecoli growth,UCH37 inh,Vif TR-FRET,HNF4A DNA FP,FGF22 binding,RanGTP-Imp inh,AF4-AF9 inh
Cc1cc(C)c(C)c(S(=O)(=O)N2CCNC(=O)C2)c1C,.,.,4%,-6.2,i,.,-2.3
CC1CCCN(C(=O)Cc2cccc3ccccc23)C1 (stereo unspecified),0.6,2.9,.,-1.5,i,-0.3,-0.4
Cc1ccc2ccc(C#N)cc2c1O,.,.,.,2.1,i,.,0.9
Cc1ccc(-c2nc(SC(C)C(=O)c3c(N)n(C)c(=O)n(C)c3=O)n[nH]2)cc1 (stereo unspecified),0.63,0.3,-5%,-3.1,i,1.2,-17
COc1ccc(NC(=O)Cn2nnc(C(=O)NCc3ccc4c(c3)OCO4)c2N)c(OC)c1,0.69,-0.7,-1%,-0.5,i,-1.7,0.8
CCOc1ccc(N(CC)C(=O)COc2cc(=O)n(CC)c3ccccc23)cc1,0.64,1.3,0%,-2.1,.,-1.4,.
Cc1onc(-c2ccccc2)c1C(=O)Nc1ccc(S(=O)(=O)Nc2nccs2)cc1,0.69,5.8,-1%,-0.3,i,0.0,-5.8
O=C(CCCN1C(=O)/C(=C/c2cccs2)SC1=S)NNC(=O)c1ccc(F)cc1,0.72,6.0,.,5.7,.,7.5,.
COc1cccc(-n2c(SCC(=O)NCCc3ccccc3)nnc2-c2ccoc2C)c1,0.72,4.1,-3%,0.6,.,0.3,.
CC1CN(CC(=O)NC(C)c2ccccc2)CC(C)O1 (stereo unspecified),0.64,0.6,.,-0.7,i,-1.8,-16
CC(C)Oc1c(N2CCOCC2)c(=O)c1=O,0.67,0.7,-14%,0.9,i,-2.9,.
Cc1cc2nccc(-c3ccc(OCCCF)cc3)n2n1,0.67,-40,6%,1.5,i,-0.6,-10
CC(C)C(C(=O)Nc1cccnc1)N1C(=O)c2ccccc2C1=O (stereo unspecified),0.63,-0.6,8%,-0.2,.,-1.3,.
Cc1ccc(C(=O)NC2CCN(CC(=O)Nc3ccccc3Cl)CC2)cc1,.,.,6%,1.2,i,4.3,-0.1
O=C(/C=C/c1cccc([N+](=O)[O-])c1)NCc1ccc2c(c1)OCO2,0.68,2.5,.,2.4,.,?,.
Cc1ccsc1C(=O)N1CCCC1(C)C(=O)NCC(C)C (stereo unspecified),.,.,.,3.5,i,.,1.1
Clc1cccc(-c2nc3nc4ccccc4nc3n2Cc2ccccc2)c1,.,-5.5,-5%,1.4,i,1.3,-0.1
Fc1ccc(CN2CCC(Cc3ccccc3)CC2)cc1F,0.64,2.5,5%,-0.1,i,-5.8,1.2
Clc1ccc(Cn2ncc3c(NCc4ccccc4)ncnc32)cc1,0.69,7.4,17%,0.9,.,0.2,.
CC1(C)Cc2cccc(OCC(=O)Nc3cccnc3)c2O1,0.7,0.3,-3%,-3.8,.,0.3,.

# Retrieved one by one from the list above:
SMILES,Ecoli growth,UCH37 inh,Vif TR-FRET,HNF4A DNA FP,FGF22 binding,RanGTP-Imp inh,AF4-AF9 inh
Cc1cc2nccc(-c3ccc(OCCCF)cc3)n2n1,0.67,-40,6%,1.5,i,-0.6,-10
CC(C)Oc1c(N2CCOCC2)c(=O)c1=O,0.67,0.7,-14%,0.9,i,-2.9,.
COc1cccc(-n2c(SCC(=O)NCCc3ccccc3)nnc2-c2ccoc2C)c1,0.72,4.1,-3%,0.6,.,0.3,.
Cc1ccc2ccc(C#N)cc2c1O,.,.,.,2.1,i,.,0.9

# (continued)
SMILES,Ecoli growth,UCH37 inh,Vif TR-FRET,HNF4A DNA FP,FGF22 binding,RanGTP-Imp inh,AF4-AF9 inh
COc1cccc(OC)c1OCC(O)CN1CCN(c2ccccc2F)CC1 (stereo unspecified),0.69,5.6,-3%,1.1,i,0.5,-1.8
COCCN(C(=S)Nc1ccc(OC)c(Cl)c1)C1CCN(C(C)C)CC1,0.65,-0.5,-1%,0.9,i,-1.1,-1.2
CSc1ncc(C(=O)O)c(C)n1,0.67,5.1,-9%,1.4,i,1.6,0.7
O=C(NCC1OCCc2ccccc21)c1ccc(NC(=O)c2ccc(Cl)cc2Cl)cc1 (stereo unspecified),0.7,-0.6,7%,-0.7,.,1.2,.
O=C(Cc1ccccc1)N1CCC(O)(c2cccnc2)CC1,0.66,2.4,?,0.8,.,-1.0,.
S=C(NCc1ccco1)NCc1ccco1,0.72,3.1,4%,-0.9,i,.,-17
CCOC(=O)C1CCCN(C(=S)Nc2cc(C)cc(C)c2)C1 (stereo unspecified),0.73,2.4,4%,2.6,.,1.1,.
CCOn1c(=O)c(-c2ccc(OC)c(OC)c2)[n+]([O-])c2ccccc21,0.76,6.8,1%,-0.8,.,-0.2,.
O=S(=O)(c1cccc(Br)c1)N1CCN(c2ccnc3cc(Cl)ccc23)CC1,0.71,-15,.,-0.4,i,-1.4,-1.5
CCN(CC)S(=O)(=O)c1ccc2c(c1)nc(SC(C)C(=O)NCC1CCCO1)n2CC (stereo unspecified),0.71,3.4,.,4.2,i,-0.6,-1.5
Cc1c2cnn(-c3ccccc3)c(=O)c2c(C)n1CCCC(=O)N1CCN(c2ncccn2)CC1,0.75,-2.8,21%,-1.3,.,.,.
O=C1CCCN1CC(=O)N1CCCC(Nc2cccc(F)c2)C1 (stereo unspecified),0.67,-0.6,.,2.5,i,-4.1,-0.4
O=C(NCc1ccccc1)c1c[nH]c2ccccc2c1=O,0.67,0.6,.,1.2,i,3.4,-3.9
Cc1ccc2c(c1)N(CC(=O)Nc1nccs1)C(=O)CO2,0.72,-1.8,-4%,2.8,i,.,0.4
O=C(CCC1CCCN(C(=O)c2cc(F)ccc2F)C1)N1CCN(c2ccccn2)CC1 (stereo unspecified),.,.,.,2.8,i,.,2.9
Cc1cc(C(=O)Nc2ccccc2[N+](=O)[O-])cs1,0.68,6.1,-11%,5.7,i,3.7,5.0
Nc1c(N(CCC2=CCCCC2)C(=O)c2ccco2)c(=O)[nH]c(=O)n1Cc1ccccc1,0.73,1.9,-1%,3.7,i,?,-0.9
C/C(=N\N1CCN(Cc2ccccc2Cl)CC1)c1ccc([N+](=O)[O-])cc1,.,.,-6%,7.9,i,-1.7,8.0
CCCCNC(=O)c1ccc(/C=C2\Oc3ccccc3N(C)C2=O)cc1,0.68,i,-8%,2.6,i,0.9,1.8
c1ccc(COc2cccc(CN3CCc4ccccc4C3)c2)cc1,0.68,0.8,6%,-1.7,i,?,0.0
O=C(Nc1nccs1)c1cccc(S(=O)(=O)N2CCOCC2)c1,0.73,5.7,0%,1.4,.,-4.2,.
CC1(C)Cc2nc(-c3ccccc3)nc(SCC(=O)N3CCOCC3)c2CO1,0.68,2.1,.,1.6,i,0.5,-3.3
O=S(=O)(c1ccccc1)N1CCN(c2ncnc3sc(-c4ccccc4)cc23)CC1,0.77,-324,-8%,0.5,.,2.1,.
COCc1cc(C)nc(Sc2nc3c(c(=O)n(C)c(=O)n3C)n2C)c1C#N,0.68,2.3,-4%,4.1,i,-1.1,-2.7
COC(=O)C(NC(=O)c1ccco1)(Nc1nc(C)cs1)C(F)(F)F (stereo unspecified),0.73,1.4,73%,2.9,.,-1.2,.
CN(Cc1ccccc1)Cc1nc2c(c(=O)n(C)c(=O)n2C)n1CCc1ccccc1,0.67,4.9,.,-0.2,.,0.8,.
COc1ccc(Cc2nc3ccc(C(=O)N4CCCCC4CO)cc3o2)cc1OC (stereo unspecified),.,.,1%,1.1,i,.,1.3
COc1ccc(Cl)cc1-c1n[nH]c(=S)n1C,0.8,-1.0,7%,3.3,.,?,.
COC(=O)c1ccc(S(=O)(=O)N2CCCC2)o1,0.77,-1.8,-1%,-0.3,.,1.3,.
COc1ccc(S(=O)(=O)N2CCC(C(=O)Nc3cccc(C(C)=O)c3)CC2)cc1C,0.67,1.5,-4%&2%,-1.0,.,0.1,.
COc1ccc(-c2csc(N(Cc3ccccc3)C(=O)COc3ccc(Cl)cc3)n2)cc1,0.76,3.6,1%,-0.7,.,-4.7,.
COc1ccc(C(F)(F)F)cc1N/C=C/c1nnnn1-c1ccc(C)cc1,0.68,-0.5,-1%,2.7,i,0.5,-1.1
Cc1ccc(C)c(CN2CCSCC2)c1,0.64,6.0,.,-0.3,i,7.8,-0.1
O=[N+]([O-])c1cc2ccccc2c(O)c1O,.,.,22µM*,-4.0,i,.,-1.0
COc1ccccc1CNCC(=O)Nc1cc(S(=O)(=O)N2CCOCC2)ccc1Cl,0.69,2.3,.,-1.6,i,.,0.7
CCOc1ccc(N(CC(=O)NCCC2=CCCCC2)S(=O)(=O)c2ccccc2)cc1,0.7,0.7,75%,-1.3,.,-4.9,-0.4
Cc1nc2ccccc2nc1OCC(=O)Nc1cc(C(F)(F)F)ccc1N1CCOCC1,0.79,3.3,-2%,16,.,1.1,.
CCOP(=O)(OCC)C(NC(=O)/C=C/c1ccc(OC)cc1)c1ccccc1 (stereo unspecified),0.62,0.2,-2%,-3.1,.,1.2,-1.6
N#CC1(NC(=O)COC(=O)c2ncc(Cl)c(Cl)c2Cl)CCCCC1,0.65,-0.6,1%,0.0,i,2.7,-23
COC(=O)CNC(c1ccccc1)c1cc(Br)ccc1NC(=O)CCN1CCOCC1 (stereo unspecified),0.69,-1.3,?,2.9,i,-2.1,0.6
CC(C)C(NC(=O)c1ccc(Cl)cc1)C(=O)O (stereo unspecified),0.66,-0.1,-1%,1.2,.,-3.5,.
Cn1nc(-c2ccccc2)cc1NC(=O)c1ccc(Cl)cc1,0.68,1.1,.,0.8,i,.,-6.1
Cc1cccc(C(=O)NCCC(=O)NCc2ccccc2Cl)c1,0.66,1.3,25%,2.4,i,.,-0.4
Cc1cc(C(=O)NC2CCCN(Cc3ccc(Cl)cc3)C2)c(C)o1 (stereo unspecified),0.66,3.8,.,-1.7,i,5.6,-8.3
COc1cc(OC)nc(Oc2cc(C=O)ccc2OC)n1,0.71,-0.5,-6%,0.7,i,6.1,-26
CCCCN(CCCC)S(=O)(=O)c1ccc(C(=O)Nc2nnc(CSC)o2)cc1,0.71,0.3,2%,4.8,.,-2.2,.
COCCNc1cc(C)nc2cc(-c3ccc(C)cc3)nn12,0.62,-56,-1%,7.5,i,19*,-9.6
C=CCOc1ccc(CNCC2CCCO2)cc1 (stereo unspecified),0.69,3.7,.,-0.5,i,-7.0,-0.4
COc1cccc(N(CC(=O)Nc2ccccc2C)S(C)(=O)=O)c1,0.7,-1.5,0%,3.1,.,8.1,.
O=S(=O)(Cc1ccc(Cl)cc1)c1ccccc1-c1nnc(-c2ccccc2)o1,0.73,-1.7,-1%,0.4,.,-1.0,.
CCn1c(CNC(=O)c2ccccc2Cl)cc2ccccc21,0.66,1.9,.,-0.4,i,-4.9,-3.4
O=c1cc(-c2ccccc2)n(S(=O)(=O)c2ccc3ccccc3c2)o1,0.73,1.9,.,2.3,.,-1.3,.
CCc1cccc(NC(=O)COC(=O)c2c(-c3ccccc3)noc2C)c1,.,.,-1%,2.3,i,.,-0.3
CCOC(=O)c1c(-c2ccc(Cl)cc2)cn2ccccc12,0.73,-31,14%,3.1,.,-3.9,.

# Assay outcomes (PubChem)
